KCNQ2 inh – KCNQ2 potassium channel inhibitors, primary screen, cell-based, CHO-K1, FluxOR thallium flux, B-score (AID 2156) | 20 min; active compounds read low; only compounds with negative scores are shown here; some inactives read as strong as hits | B-score at 10 µM | actives 1.1% (n = 310,000);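 active = fluorescence ratio B-score at most minus 3 library SDs, with starting brightness B-score within 2 library SDs, cut at about -5.5 in these data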
Target sequence (O88943 whole entry, looked up): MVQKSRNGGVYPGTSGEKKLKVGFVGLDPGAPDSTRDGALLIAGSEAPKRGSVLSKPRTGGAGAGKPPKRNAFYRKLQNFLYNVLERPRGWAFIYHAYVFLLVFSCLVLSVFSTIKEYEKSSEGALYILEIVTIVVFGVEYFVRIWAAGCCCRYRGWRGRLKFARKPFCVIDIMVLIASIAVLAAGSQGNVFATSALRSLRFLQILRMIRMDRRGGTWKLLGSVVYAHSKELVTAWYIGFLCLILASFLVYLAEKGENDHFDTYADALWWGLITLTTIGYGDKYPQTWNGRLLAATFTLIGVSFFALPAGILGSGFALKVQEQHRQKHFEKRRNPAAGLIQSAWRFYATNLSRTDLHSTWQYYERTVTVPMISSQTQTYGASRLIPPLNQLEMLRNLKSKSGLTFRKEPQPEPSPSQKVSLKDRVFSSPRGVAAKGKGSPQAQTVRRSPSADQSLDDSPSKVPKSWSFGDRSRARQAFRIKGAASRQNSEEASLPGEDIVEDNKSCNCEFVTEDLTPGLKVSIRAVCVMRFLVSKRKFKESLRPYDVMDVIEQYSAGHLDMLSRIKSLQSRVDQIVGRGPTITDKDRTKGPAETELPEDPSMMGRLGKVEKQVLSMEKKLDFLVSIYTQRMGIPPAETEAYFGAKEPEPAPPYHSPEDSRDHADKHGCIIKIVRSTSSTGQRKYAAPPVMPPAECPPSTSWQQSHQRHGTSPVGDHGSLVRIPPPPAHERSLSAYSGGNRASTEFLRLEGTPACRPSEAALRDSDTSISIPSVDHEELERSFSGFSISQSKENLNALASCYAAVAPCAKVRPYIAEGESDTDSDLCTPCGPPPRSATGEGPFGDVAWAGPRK
KCNQ2 inh baseline – recorded beside KCNQ2 inh, whose call it bears; B-score; measured here: initial fluorescence intensity artifact check;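 brightness before thallium and not channel activity; 0 = typical well and far values either way flag optical interference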
Active calls of the source: *; i = inactive; & = joins results of further samples.

KCNQ2 inh	KCNQ2 inh baseline	Structure
i	0.08	Cc1cc(-c2ccn[nH]2)c(C)s1
i	1.3	COc1ccc(CCNC(=O)CCNS(=O)(=O)c2cccc(Cl)c2)cc1OC
i	-0.45	Clc1ccccc1-c1nnc2n1-c1ccccc1SC2
i	3.1	CCOC(=O)C1CCCN(C2=NC(=O)/C(=C/c3ccc(O)c(OC)c3)S2)C1 (configuration not stated)
i	0.8	CC(=O)Nc1nonc1NC(=O)c1ccc(F)cc1
i	-0.75	CCCS(=O)c1nc(C)cc(C)c1S(C)(=O)=O (configuration not stated)
i	0.82	CN(C)C(=O)C1C2NC(=S)N(c3ccccc3)C1(C)Oc1ccccc12 (configuration not stated)
i	-1.7	CN(C)c1ccc(/C=C/c2nnnn2-c2ccccc2)cc1
i	-0.78	CCc1cc2c(SCC(=O)N3CC(=O)Nc4ccccc43)ncnc2s1
i	-0.28	CC(=O)N(c1ccc2oc(=O)sc2c1)S(=O)(=O)c1cccc2cccnc12
i	2.5	O=C(O)C1CCCN(S(=O)(=O)Cc2ccccc2)C1 (configuration not stated)
i	0.21	Cc1ccc(NC(=O)N2CCN(S(=O)(=O)c3ccccc3)CC2)cc1
i	-2	CCOC(=O)C1=CN(Cc2ccc(OC)cc2)C=C(C(=O)OCC)C1c1cccs1
i	2.6	O=C(CCN1CCN(Cc2ccccc2)CC1)NNC(=O)Nc1cccc([N+](=O)[O-])c1
i	-1.8	COc1ccc(S(=O)(=O)N(Cc2ccccc2)Cc2nc3ccccc3c(=O)[nH]2)cc1
i	0.47	CC(=O)Nc1ccc(C)c(NS(=O)(=O)c2cccc(C(F)(F)F)c2)c1
i	1.8	COc1ccc(N(C(C)=O)C2C=CS(=O)(=O)C2)c(OC)c1 (configuration not stated)
i	-0.06	Cc1ccc(-n2ccc(-c3nn(-c4ccccc4)ccc3=O)n2)cc1
i	-0.67	CCOc1ccc(OCCSc2nnnn2-c2ccccc2)cc1
i	0.17	COc1ccc(Cc2nnc(SCC(=O)N3CCCC(C)C3)o2)cc1 (configuration not stated)
i	-0.7	COC(=O)C(Cc1c[nH]c2ccccc12)N1CCS(=O)(=O)CC1 (configuration not stated)
i	-2.1	CCc1nc(N2CCC3(CC2)OCCO3)c2nnn(Cc3ccccc3)c2n1
i	-0.14	O=C1NC2(CCCC2)C(=O)N1CC(=O)N(Cc1ccccc1)c1ccccc1
i	0.36	O=C(c1cc(COc2c(F)cccc2F)on1)N1CCSCC1
i	-1.3	O=C(C1=C(O)C(=O)N(CC2CCCO2)C1c1ccccc1F)c1ccco1 (configuration not stated)
i	0.06	CC(=O)/C(=N\Nc1ccccc1)Oc1ccc(Br)cc1
i	-2	COc1cccc2c1cc1c(=O)n(CC(=O)NCc3ccccn3)nc(C)n12
i	-0.53	COC(=O)c1cn(NC(=O)Cc2ccccc2Br)c(=O)c2ccccc12
i	2.2	CCOC(=O)c1c(C)cc(C)[nH]c1=O
i	0.74	COCCNC(=O)/C(C#N)=C/c1c(N2CCN(c3cccc(Cl)c3)CC2)nc2c(C)cccn2c1=O
i	-0.7	CC1CN(c2nc3ccccn3c(=O)c2/C=C(\C#N)C(N)=O)CC(C)O1 (configuration not stated)
i	0.29	O=C(NCCNc1ccc([N+](=O)[O-])cc1)c1ccccc1Br
i	2.4	CCOC(=O)Cc1csc(NC(=O)c2sc3nc4c(C)cc(C)cc4cc3c2N)n1
i	1.2	COCCNC(=O)C(OC(=O)c1cc2oc(C)cc2n1C)C(C)C (configuration not stated)
i	0.02	O=C(Cn1c(=O)c2sccc2n(Cc2ccc([N+](=O)[O-])cc2)c1=O)NCCc1ccccc1
i	-1.8	Cc1nc(C)c(-c2csc(NCCc3ccccc3)n2)s1
i	0.73	O=C(CN1CCCCC1)NN(Cc1ccccc1)c1ccccc1
i	-2.3	COc1ccc(C2CC(c3c(-c4ccccc4)c4cc(Cl)ccc4[nH]c3=O)=NN2S(C)(=O)=O)cc1OC (configuration not stated)
i	1.8	Cc1cccc(-c2ccc(NC(=O)C3CCN(CC4CC4)CC3)cc2)c1
i	-0.05	O=C(Oc1ccc(N(Cc2cccs2)C2=NS(=O)(=O)c3ccccc32)cc1)c1ccco1
i	-1.8	Cc1ccc(NC(=O)C(=O)NCCc2c[nH]c3ccccc23)c(C)c1
i	1.2	O=C(Nc1ccccc1C(F)(F)F)N1CCCC(O)C1 (configuration not stated)
i	-0.03	CCOCCCN(Cc1ccco1)S(=O)(=O)c1csc(C(N)=O)c1
i	-0.08	Nn1c(SCC(=O)N2CCCC2=O)nnc1-c1cccs1
i	-1.6	O=C(CSc1ncn[nH]1)NCCOc1ccccc1
i	-1.4	Cc1ccc(C(C)(O)CS(=O)(=O)Cc2ccccc2Cl)cc1 (configuration not stated)
i	3.2	CCc1cc(=O)oc2c3c(cc(OCC(=O)NCCCn4ccnc4)c12)OC(C)(C)CC3
i	1.3	CN(C)CCN(C(=O)c1ccc(S(=O)(=O)N(C)c2ccccc2)cc1)c1nc2cc3c(cc2s1)OCCO3
i	-0.35	CC(C)CN1C(=O)CC(Sc2ccccc2C(=O)O)C1=O (configuration not stated)
i	-0.55	O=C(COc1ccc(S(=O)(=O)N2CCOCC2)cc1)NCCN1CCOCC1
i	-0.61	Cc1nn(C)c(C)c1CN(C(=O)CCc1nnc(Cc2c[nH]c3ccccc23)o1)C(C)C
i	-1.2	O=C(c1ccc(OC2CCN(Cc3ccc(F)cc3)CC2)cc1)N1CCCC1
i	-0.27	C=CCNC(=O)COc1coc(CN2CCN(Cc3ccccc3)CC2)cc1=O
i	-0.29	COC(=O)c1cc(C(=O)c2cc(F)ccc2O)cn2c(=O)c3c(C)c(C)sc3nc12
i	-0.11	COc1ccc(Nc2nnc(SC(C(=O)Nc3ccc(OC)c(Cl)c3)c3ccccc3)s2)cc1 (configuration not stated)
i	0.94	CCOc1ccc(NC(=O)NCCN2CCN(c3cccc(C)c3C)CC2)cc1
i	1.4	CCOc1ccc(CCNC(=O)CSCc2ccc(C)cc2)cc1OCC
i	-1.7	CCn1c(=O)cc(OCC(=O)NCC2CCCO2)c2ccccc21 (configuration not stated)
i	0.73	C=CCNC(=O)Nc1ccc2oc(C)nc2c1
-6.9*	-0.73*	O=C(COC(=O)c1cc(-c2ccco2)nc2ccccc12)NCc1ccccc1

Next compounds follow:
KCNQ2 inh	KCNQ2 inh baseline	Structure
i	0.36	CC1CC(C)CN(C(=O)CNS(=O)(=O)c2ccc(Br)s2)C1 (configuration not stated)
i	-0.21	C/C(=N/NC(=O)CNC(=O)C(c1ccccc1)c1ccccc1)c1ccco1
i	-0.3	CN(C)c1nc(OCCOC(=O)COc2ccc(Cl)cc2Cl)nc(N(C)C)n1
i	-0.19	COc1ccccc1C(=O)NNC(=O)C(=O)NC(C)C
i	-0.08	CCOC(=O)n1c(=O)oc2cc(S(=O)(=O)N3CCCCC3)ccc21
i	-0.16	Cc1cc(CNC(=O)c2cc(COc3c(F)cccc3F)on2)nn1C
i	-0.81	Cc1ccccc1C(=O)Nc1ccccc1N1CCCCC1
i	1.9	O=C(CSc1ncn[nH]1)Nc1nc(-c2ccccc2)cs1
i	0.28	Cc1ccc(S(=O)(=O)Nc2cccc(C(=O)NCC(c3ccco3)N(C)C)c2)cc1F (configuration not stated)
i	-2.2	Cc1cc(C)c(OCC(=O)N(Cc2cccs2)C2CCS(=O)(=O)C2)c(C)c1 (configuration not stated)
i	-0.66	Cc1ccccc1C(=O)NCCOc1ccccc1Cl
i	-0.84	COc1ccccc1NC(=O)Cc1cccc2ccccc12
i	-0.75	Cc1cccc(N2CCN(C(=O)c3cc(S(=O)(=O)N4CCCC4)cn3C)CC2)c1C
i	1.4	O=C1CCc2cc(S(=O)(=O)N3CCN(Cc4ccc5c(c4)OCO5)CC3)ccc2N1
-7.7*	-1*	O=C(c1ccco1)N(CCC(c1ccccc1)c1ccco1)Cc1ccccc1 (configuration not stated)

For convenience, 19 of the compounds above.
KCNQ2 inh	KCNQ2 inh baseline	Structure
i	1.4	CCOc1ccc(CCNC(=O)CSCc2ccc(C)cc2)cc1OCC
i	-1.7	CCn1c(=O)cc(OCC(=O)NCC2CCCO2)c2ccccc21 (configuration not stated)
i	0.73	C=CCNC(=O)Nc1ccc2oc(C)nc2c1
-6.9*	-0.73*	O=C(COC(=O)c1cc(-c2ccco2)nc2ccccc12)NCc1ccccc1
i	0.36	CC1CC(C)CN(C(=O)CNS(=O)(=O)c2ccc(Br)s2)C1 (configuration not stated)
i	-0.21	C/C(=N/NC(=O)CNC(=O)C(c1ccccc1)c1ccccc1)c1ccco1
i	-0.3	CN(C)c1nc(OCCOC(=O)COc2ccc(Cl)cc2Cl)nc(N(C)C)n1
i	-0.19	COc1ccccc1C(=O)NNC(=O)C(=O)NC(C)C
i	-0.08	CCOC(=O)n1c(=O)oc2cc(S(=O)(=O)N3CCCCC3)ccc21
i	-0.16	Cc1cc(CNC(=O)c2cc(COc3c(F)cccc3F)on2)nn1C
i	-0.81	Cc1ccccc1C(=O)Nc1ccccc1N1CCCCC1
i	1.9	O=C(CSc1ncn[nH]1)Nc1nc(-c2ccccc2)cs1
i	0.28	Cc1ccc(S(=O)(=O)Nc2cccc(C(=O)NCC(c3ccco3)N(C)C)c2)cc1F (configuration not stated)
i	-2.2	Cc1cc(C)c(OCC(=O)N(Cc2cccs2)C2CCS(=O)(=O)C2)c(C)c1 (configuration not stated)
i	-0.66	Cc1ccccc1C(=O)NCCOc1ccccc1Cl
i	-0.84	COc1ccccc1NC(=O)Cc1cccc2ccccc12
i	-0.75	Cc1cccc(N2CCN(C(=O)c3cc(S(=O)(=O)N4CCCC4)cn3C)CC2)c1C
i	1.4	O=C1CCc2cc(S(=O)(=O)N3CCN(Cc4ccc5c(c4)OCO5)CC3)ccc2N1
-7.7*	-1*	O=C(c1ccco1)N(CCC(c1ccccc1)c1ccco1)Cc1ccccc1 (configuration not stated)

Next records:
KCNQ2 inh	KCNQ2 inh baseline	Structure
i	-1.2	C=CCNC(=S)NNC(=O)c1cccn(Cc2ccc(Cl)c(Cl)c2)c1=O
i	0.76	COc1cc(O)sc1C=Nc1ccc(Cl)cc1
i	-0.52	COc1ccc(C(=O)NC(C)c2ccccc2)cc1Br (configuration not stated)
i	1	CN(Cc1ccccc1)C(=O)CNC(=O)Cn1cnc2ccccc2c1=O
i	-0.44	CC(OC(=O)CCCCCN=C1NS(=O)(=O)c2ccccc21)C(=O)Nc1cc(Cl)cc(Cl)c1 (configuration not stated)
i	1.7	COc1ccc2nc(NC(=O)c3cccs3)sc2c1
i	1.1	FC(F)(F)c1cnc(C(c2ccccn2)c2ncn[nH]2)c(Cl)c1 (configuration not stated)
i	1.4	COc1ccc(OC)c(C(=O)c2ccccc2)c1
i	-0.12	CCSc1nc2ccccc2c(=O)n1C1CCOC(C)(C)C1 (configuration not stated)
i	0.61	CCOC(=O)c1c(C)nc2ccc(Cl)cc2c1-c1ccccc1
i	0.22	Cc1nc2cc(NC(=O)Nc3ccc(N4CCOCC4)cc3)ccc2n1C
i	1.9	CCOC(=O)C(Cc1ccccc1)NC(=O)CNC(C)=O (configuration not stated)
i	-0.03	CCOC(=O)c1cc(-c2ccccc2)nn1CC1CC(c2cccc([N+](=O)[O-])c2)=NO1 (configuration not stated)
i	-0.14	COc1cccc(C(=O)N2N=C(c3ccccn3)CC2(O)C(F)(F)F)c1 (configuration not stated)
i	0.08	COCCCNC(=O)Cn1nc(-c2cccc(OC)c2)ccc1=O
i	0.26&-0.59	C[C@H]1O[C@@H](O[C@H]2[C@@H](O)C[C@H](O[C@H]3[C@@H](O)C[C@H](O[C@H]4CC[C@@]5(C)[C@H](CC[C@@H]6[C@@H]5C[C@@H](O)[C@]5(C)[C@@H](C7=CC(=O)OC7)CC[C@]65O)C4)O[C@@H]3C)O[C@@H]2C)C[C@H](O)[C@@H]1O
i	-0.13	Cc1occc1C(=O)N(C)CC1CCCN(CCc2ccccc2F)C1 (configuration not stated)
i	1.8	Cc1ccc(Nc2nc(-c3ccccc3)c(CC(=O)O)s2)cc1
i	0.95	COc1ccccc1OC(C)C(=O)Nc1ccc2c(c1)OCCO2 (configuration not stated)
i	0.75	C=CCOC(=O)C1=C(C)N=C2SCCC(=O)N2C1c1cccs1 (configuration not stated)
i	-0.41	S=C(NCCc1ccccc1)NC1CCCCCC1
i	0.21	CC1CN(C(=S)Nc2ccc(Cl)cc2)CC(C)O1 (configuration not stated)
i	-0.01	COc1ccccc1CNC(=O)CSc1ccccc1
i	0.11	Nn1c(Nc2ccccc2)nc2sc3c(c2c1=O)CCCC3
i	-0.01	CNC(=O)Nc1ccc(Cl)cc1
i	0.98	Nc1ccc2oc3ncccc3c(=O)c2c1
i	-1.3	CCOc1ccc(OCCC(=O)OCC(=O)Nc2cc(OCC)c(N3CCOCC3)cc2OCC)cc1
i	-0.25	CC(C)=C(NC(=O)c1ccccc1Br)C(=O)NCCc1nc2ccccc2[nH]1
i	-0.55	O=C(NCc1ccccc1)C(c1ccco1)N(C(=O)c1ccccn1)c1ccccc1 (configuration not stated)
i	-2.1	CCOc1nc(Nc2ccc(OC)cc2OC)nc(OCC)n1
i	-0.04	CCn1c(CNc2nc(-c3ccccc3)cs2)nnc1SCC(=O)NCc1ccco1
i	2	CCc1c(C)c2ccc(OCC(=O)NCC3CCC(C(=O)O)CC3)c(C)c2oc1=O (configuration not stated)
i	1.2	CCOC(=O)N1CCN(C(=O)CCS(=O)(=O)c2cc3c(cc2Cl)NC(=O)CO3)CC1
i	1.7	CC(=O)Nc1ccc(S(=O)(=O)N2CCN(c3ccc([N+](=O)[O-])cc3)CC2)cc1
i	0.15	COc1ccccc1NC(=O)CS(=O)(=O)c1cn(CC(=O)N2CCCC2)c2ccccc12
i	-1.6	COc1ccccc1-c1nnc(SCC(=O)N2CCCCC2)o1
i	1	O=C(CC(Nc1ccccc1)c1ccc(F)cc1)c1ccccc1 (configuration not stated)
i	1.8	COc1ccc(/C=N/Nc2nc3ccccc3c(=O)n2-c2ccccc2)cc1OC

Source: PubChem BioAssay (Johns Hopkins Ion Channel Center)

These rows are one share of the data; the hit share may differ from the screen's.
